# Compound activity deposited in PubChem by Southern Research Specialized Biocontainment Screening Center.
# inhibitors of VEEV = inhibitors of VEEV TC-83 cytopathic effect, confirmation, Vero cells (AID 588727) | Vero cells, VEEV TC-83 cytopathic effect inhibition; higher % means a stronger effect | one-dose inhibition, % at 20 µM; IC50 in µM for titrated hits | 350,000 compounds, 0.13% hits; in the data active = a potency from the dose series; inconclusive = inhibition mostly from about 14% at the one dose, without a potency; inactive = the rest, 99 in 100 with inhibition below about 12%; also: strong numbers were not always called active
# H37Rv inhibition = M. tuberculosis growth inhibition, HTS (AID 449762); M. tuberculosis H37Rv growth inhibition, 7H9 media; higher % means a stronger effect; inhibition, % at 25 µM, or IC50 in µM where a hit was titrated; 330,000 compounds, 0.59% hits; in the data active = a potency from the dose series; inconclusive = inhibition above about 70% without an active follow-up result;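 also: bacterial growth assessed after seven days of incubation; strong numbers were not always called active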
# M. tuberculosis = growth inhibition of non-replicating M. tuberculosis (AID 488890); Mycobacterium tuberculosis non-replicating, growth inhibition; higher % means a stronger effect; inhibition, % at 25 µM; hits with a dose series show IC50 in µM; 320,000 compounds, 0.39% hits; in the data active = a potency from the dose series; inconclusive = inhibition mostly from about 82% at the one dose, without a potency; inactive = the rest, 99 in 100 with inhibition below about 76%;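 also: plate controls were DMSO cells for no effect and high antibiotic wells for full effect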
# * hit, by the source's call; i = inactive; ? = inconclusive; · = not tested or not shown; & = joins results of further samples. A portion of the library, so the mix of outcomes need not match the whole.
1: Cc1sc2ncnc(SCC(=O)N3CCN(C(=O)c4ccco4)CC3)c2c1C
2: Cc1ccc2oc(=O)c(/C=C(\O)c3ccccc3)nc2c1
3: Oc1c(Br)cc(Br)cc1Oc1ccc(Br)cc1Br
4: CC12CCC3c4ccc(O)cc4CCC3C1CC(O)C2O (configuration not stated)
5: CCn1cc(C(=O)NCc2cccnc2)c(=O)c2cc(F)c(N3CCN(C(=O)c4ccco4)CC3)cc21
6: Cc1cccc2c1N(CCCOc1ccc(C(C)(C)C)cc1)C(=O)C2=O
7: Cc1cc(N=Nc2ccc(C)c(N=Nc3cc(C)c(N)cc3N)c2)c(N)cc1N
8: O=C(O)c1cccc(C(=O)O)c1
Screen / compound no. | 1 | 2 | 3 | 4 | 5 | 6 | 7 | 8
inhibitors of VEEV | i | i | · | 0.7% | 7.3% | 2.5% | 7.5% | i
H37Rv inhibition | -15% | -3% | -1% | 6% | ? | 17µM* | 7% | 5%
M. tuberculosis | -31% | 4% | ? | 8% | 51% | · | -15% | 5%

9: Nc1cc(=O)[nH]c(=S)n1-c1cccc(C(F)(F)F)c1
10: Cc1ccc(C(C)C)c(OCCNC(=O)c2ccccc2O)c1
11: C(=N\c1c(-c2ccccc2)nc2n1CCS2)/c1ccccc1
12: O=C(c1cnn(C(=O)COc2ccccc2F)c1)c1cc(F)ccc1O
13: CCNC(=O)Oc1ccc[nH]c1=O
14: O=C(N/N=C/c1ccc([N+](=O)[O-])o1)c1ccncc1
15: O=Cc1c(Cl)nc2ccccn2c1=O
16: Fc1ccc(NC(=S)NCc2ccccc2Cl)cc1
Screen / compound no. | 9 | 10 | 11 | 12 | 13 | 14 | 15 | 16
inhibitors of VEEV | 2.2% | 13% | 0.1% | 2.7% | i | 2.3% | i | 6.7%
H37Rv inhibition | -6% | 21% | 58% | 4% | -4% | ? | 5% | 2%
M. tuberculosis | -9% | 14% | 13% | 67% | -18% | ? | -10% | ?

# A second format for some results above:
no. | canonical_smiles | inhibitors of VEEV | H37Rv inhibition | M. tuberculosis
10 | Cc1ccc(C(C)C)c(OCCNC(=O)c2ccccc2O)c1 | 13% | 21% | 14%
11 | C(=N\c1c(-c2ccccc2)nc2n1CCS2)/c1ccccc1 | 0.1% | 58% | 13%
12 | O=C(c1cnn(C(=O)COc2ccccc2F)c1)c1cc(F)ccc1O | 2.7% | 4% | 67%
13 | CCNC(=O)Oc1ccc[nH]c1=O | i | -4% | -18%

# Next compounds follow:
# Values run as follows: inhibitors of VEEV	H37Rv inhibition	M. tuberculosis
17) CN(C)c1ccc(N=C/C=C2/N(C)c3ccccc3C2(C)C)cc1
→ 0.9%	·	·
18) Nc1ccc(S(=O)(=O)Nc2ncccn2)cc1
→ i	52%	61%
19) Cc1ncc(C[n+]2csc(CCO)c2C)c(N)n1
→ 0.1%&0.3%	-1%&6%	8%&-8%
20) N#CC(C(=O)C12CC3CC(CC(C3)C1)C2)c1nc2ccccc2[nH]1 (configuration not stated)
→ 11%	?	?
21) CCOC(=O)C1=C(C)NC(C)=C(C(=O)OC)C1c1cccc(Cl)c1Cl (configuration not stated)
→ 4.9%	22%	8%

# Entries shown so far with sulfur, in the order listed:
# Values run as follows: inhibitors of VEEV	H37Rv inhibition	M. tuberculosis
1) Cc1sc2ncnc(SCC(=O)N3CCN(C(=O)c4ccco4)CC3)c2c1C
→ i	-15%	-31%
9) Nc1cc(=O)[nH]c(=S)n1-c1cccc(C(F)(F)F)c1
→ 2.2%	-6%	-9%
11) C(=N\c1c(-c2ccccc2)nc2n1CCS2)/c1ccccc1
→ 0.1%	58%	13%
16) Fc1ccc(NC(=S)NCc2ccccc2Cl)cc1
→ 6.7%	2%	?
18) Nc1ccc(S(=O)(=O)Nc2ncccn2)cc1
→ i	52%	61%
19) Cc1ncc(C[n+]2csc(CCO)c2C)c(N)n1
→ 0.1%&0.3%	-1%&6%	8%&-8%
